From PubChem
Vaccinia mCherry = qHTS for Stage-Specific Inhibitors of Vaccinia Orthopoxvirus: mCherry Reporter Primary qHTS. Vaccinia virus mCherry reporter infection, fluorescence; about a quarter of the inactives have no number. Potency, µM (doses to about 36.5 µM), without a hit: at the top dose activity change, negative = inhibition, actives largely listed as inhibitors. AID 720579, 2013. 0.63% of 310,000 active; active = well fitted inhibition curve with a large enough effect; inconclusive = small, poorly fitted or top-dose-only effect; inactive = no such curve, though single readings can be large or run the other way; tested in A549 cells; also: nearly all actives have a fitted effect of over 35% in size; inactives centre near -10
Vaccinia Venus = qHTS for Stage-Specific Inhibitors of Vaccinia Orthopoxvirus: Venus Reporter Primary qHTS; Potency, µM (titrated, usually from 36.5 µM), for inactives: at the highest dose activity change, negative = inhibition, usual class: inhibitors; Vaccinia virus Venus reporter expression, fluorescence; 0.46% of 330,000 active; active means well fitted inhibition curve with a large enough effect; inconclusive means small, poorly fitted or top-dose-only effect; inactive means no such curve, though single readings can be large or run the other way; tested in A549 cells; also: nearly all actives have a fitted effect of over 30% in size; inactives centre near -10
* = called active by the depositor; i = inactive; ? = inconclusive; nt = no result given; [ ] = remark or other dose. % is scaled to controls: 0 for no effect and ±100 for the full control effect; potency is read from the fitted curve at half-maximal effect.

SMILES,Vaccinia Venus,Vaccinia mCherry
COC(=O)C(C(=O)NCC1CCCO1)C1CCCCCC1 (centres undefined),-12%,nt
COc1ccc(N2CCN(C(=O)c3ccc(C)c(NC(=O)c4ccco4)c3)CC2)cc1,-5%,-24%
N/C(=N\OC(=O)N1CCOCC1)c1ccccc1,-26%,i
COc1cccc(-c2cnc(OC(C)(C)C)nc2OC(C)(C)C)c1,0%,-17%
COc1ccc(-c2cccc(C3CC=CC4C3C(=O)N(Cc3ccccc3)C4c3ccc(C(F)(F)F)cc3)c2)cc1 (centres undefined),-10%,-4%
O=C(Cc1cn2ccsc2n1)OCc1nc2ccccc2s1,-5%,nt
COc1ccc(N2CCN(C(=S)NCCc3ccccc3)CC2)cc1,?,?
C=CC[C@@H](CC(=O)N[C@H](CO)Cc1ccccc1)C(=O)N[C@H](COC(=O)[C@@H](CC=C)CC(=O)OC(C)(C)C)Cc1ccccc1,?,-19%
Cc1ccc(CN2CCCN(Cc3ccc(C)cc3)S2(=O)=O)cc1,-8%,i
CCOC(=O)C1(C(=O)O)NC(=O)CC1c1ccccc1 (centres undefined),-3%,-27%
COc1ccccc1OCC(=O)NCCSCc1cccc(Cl)c1,-3%,-3%
COc1ccc(OC)c(NC(=O)c2cc(S(=O)(=O)NCCc3ccc(Cl)cc3)ccc2F)c1,-16%,-13%
Nc1ccc(CN2CCOCC2)cc1,5%,-2%
Fc1ccc(C2=Nn3c(Cc4ccccc4F)nnc3SC2)cc1,-17%,-1%
CN(CC(=O)Nc1c(Cl)cccc1Cl)C(=O)c1cccn1C,-9%,-23%
CC1CC1C(=O)OCC(=O)N(C)c1c(N)n(Cc2ccccc2)c(=O)[nH]c1=O (centres undefined),-4%,i
O=C(Nc1nc2ccc(S(=O)(=O)N3CCCC3)cc2s1)c1ccc(F)cc1,-10%,-10%
Cc1cc(Br)c(NC(=O)CN2CC=C(c3ccccc3)CC2)c(Br)c1,-1%,-13%
COc1cc(Cl)ccc1NC(=O)COc1ccccc1C(=O)N1CCN(c2ccc(O)cc2)CC1,4%,nt
CCOC(=O)N1CCN(Cc2nc3cc(NC(=O)C(C)C)ccc3n2C)CC1,-7%,-16%
COCCCNC(=O)C1Cc2cc(S(=O)(=O)N3CCCC3)ccc2N1C(C)=O (centres undefined),-3%,-16%
N#C/C(=N\Nc1ccc(S(=O)(=O)N2CCCCC2)cc1)C(N)=S,-18%,-24%
CNC(=S)N(Cc1ccco1)Cc1cc2cc(OC)ccc2[nH]c1=O,-7%,4%
CN(c1ccccc1)S(=O)(=O)c1ccc(C(=O)N2CCN(c3ccccc3)CC2)cc1,-4%,i
COCCn1c(SCC(=O)N2CCCc3ccccc32)nc2c(c1=O)SC(C)C2 (centres undefined),-4%,-15%
CN(C)c1nc(-c2ccccc2)c2cnn(Cc3ccccc3)c2n1,?,-19%
CC(=O)OCC1=C(C(=O)O)N2C(=O)C(NC(=O)Cc3ccccc3)C2SC1 (centres undefined),-4%,-1%
COc1ccc(-n2nc(C(=O)NCC(=O)N3CCN(Cc4ccccc4)CC3)c3ccccc3c2=O)cc1,-18%,-3%
CC1CN(Cc2ccco2)C(=S)N(c2ccccc2)C1=O (centres undefined),-10%,i
Cc1ccc(S(=O)(=O)N2CCC(c3nc4c(nnn4Cc4ccccc4)c(=O)[nH]3)CC2)cc1,-14%,-9%
C/C(=N/NC(=O)Cn1nc2ccccc2n1)c1ccc(F)cc1,-1%,i
COc1ccc(N2CCN(CCCn3cnc4c(OC)ncnc43)CC2)cc1,-6%,-3%
CCCOC(=O)c1c(N)sc2c1CCC2,-8%,-15%
Clc1ccc(N=C2SCC3CCCCN23)cc1 (centres undefined),2%,-12%
Cc1ccccc1NS(=O)(=O)c1ccc(OCC(=O)N2CCN(C)CC2)cc1,-17%,-22%
CNc1ccc(/C=C/c2ccnc3ccccc23)cc1,12%,-22%
COc1ccccc1NC(=O)C(C)OC(=O)CCNS(=O)(=O)c1ccc(C)c(C)c1 (centres undefined),-15%,0%
COC(=O)c1ccc(C23CC4(C2)[C@H](CN(Cc2cccnc2)[C@@H]4c2ccccc2)C3c2ccccc2)cc1 (some centres undefined),-24%,i
O=C(NC1CC1)C1=C[C@H](c2coc3ccccc3c2=O)C[C@H](OCCCCO)O1,-7%,i
Cc1cc(N2CCC(C(=O)NC3CCCCC3)CC2)nc(-c2ccccc2)n1,-6%,-12%
O=C(CNCC1CCCCC1)Nc1ccc(OC(F)(F)F)cc1,-15%,-23%
N#Cc1cccc(C#N)c1N1CCC(C#N)CC1,-3%,0%
CC(C)[C@H](NC(=O)[C@@H]1Cc2ccccc2CN1C(=O)OC(C)(C)C)C(=O)NCC1CCC(C(=O)O)CC1 (some centres undefined),4%,-12%
COc1ccc(NC(=O)c2cc(C3CCCCN3C(=O)Cc3ccc(N(C)C)cc3)on2)c(C)c1 (centres undefined),-17%,-9%
NS(=O)(=O)c1ccc(CCNC(=O)C2CCCN2C(=O)OCc2ccccc2)cc1 (centres undefined),-14%,-11%
CCCCCCC(=O)Nc1ccc(C(=O)N/N=C/c2cccnc2)cc1,-7%,-13%
COc1cc(NC(=O)CSc2nc(C)c(C)c(C)n2)cc(OC)c1,-3%,-10%
O=c1ccc(-c2ccc(S(=O)(=O)N3CCN(c4ccccc4)CC3)o2)n[nH]1,-9%,-15%
Cc1ccc(S(=O)(=O)Oc2cccc(/C=N/Nc3ccc(C(=O)O)cc3)c2)cc1,12%,-17%
CCN(CC)c1cc(C)c2cc(NC(=O)c3ccccc3Cl)ccc2n1,-19%,-19%
Cn1ncc(N2CCN(S(=O)(=O)c3ccc(Br)cc3)CC2)c(Cl)c1=O,-8%,i
Cc1ccccc1SCC(=O)Nc1cccc(C#N)c1,-29%,?
COC(=O)[C@@H]1C[C@@H](NC(=O)c2ccc(C(F)(F)F)cc2)CN1Cc1cccc(O)c1,1%,-2%
COc1ccc(-c2csc(NC(=O)C3CCN(C(=O)c4ccc(F)cc4)CC3)n2)cc1OC,?,-28%
O=C(CSc1nc(=O)n(CCN2CCOCC2)c2c1CCC2)Nc1ccccc1,-15%[7.34 µM],-5%[7.34 µM]
Cc1ccc(NC(=O)c2cnn(-c3ccccc3)c2C)cc1C,-19%,-10%

Other results
SMILES,Vaccinia Venus,Vaccinia mCherry
COc1ccc(/C=C(\NC(=O)c2ccc([N+](=O)[O-])cc2)C(=O)NCCCN2CCOCC2)cc1,-2%,?
Cc1ccc(S(=O)(=O)n2nc(C)c(S(=O)(=O)N3CCC(C)CC3)c2C)cc1,-6%,10%
COCCN(C(=O)c1oc2ccccc2c1COC)c1c(N)n(CC(C)C)c(=O)[nH]c1=O,-13%,i
Cc1ccc(N(C(=O)c2cc3ccccc3oc2=O)C2C=CS(=O)(=O)C2)cc1 (centres undefined),-13%,-10%
COc1ccc(Nc2nc(N3CCCCC3)nc3ccccc23)c(OC)c1,-28%,-18%
COc1ccc(C)cc1NC(=S)NNC(=O)c1c(Br)cnn1C,-4%,-18%
COc1cc(C)c(CN2CCc3nnc(C(C)NC(=O)c4cc(F)ccc4F)n3CC2)cc1C (centres undefined),-18%,-19%
COc1ccc(CN2C(=NC(=O)COc3ccccc3)SC3CS(=O)(=O)CC32)cc1 (centres undefined),-3%,0%

Some of these compounds in order of number of heavy atoms, high to low:
SMILES,Vaccinia Venus,Vaccinia mCherry
COc1ccc(/C=C(\NC(=O)c2ccc([N+](=O)[O-])cc2)C(=O)NCCCN2CCOCC2)cc1,-2%,?
COCCN(C(=O)c1oc2ccccc2c1COC)c1c(N)n(CC(C)C)c(=O)[nH]c1=O,-13%,i
COc1ccc(CN2C(=NC(=O)COc3ccccc3)SC3CS(=O)(=O)CC32)cc1 (centres undefined),-3%,0%
Cc1ccc(N(C(=O)c2cc3ccccc3oc2=O)C2C=CS(=O)(=O)C2)cc1 (centres undefined),-13%,-10%
COc1ccc(C)cc1NC(=S)NNC(=O)c1c(Br)cnn1C,-4%,-18%

The list goes on:
SMILES,Vaccinia Venus,Vaccinia mCherry
CCN(CC)C(=O)c1[nH]cnc1C(=O)Nc1cccc(C)c1,-22%,i
CCOC(=O)/C(N=Nc1cc(C(=O)O)cc(C(=O)O)c1)=C(\O)CCl,-11%,i
CCc1nn2c(=O)cc(COC(=O)c3cccc(NC(=O)COc4ccccc4)c3)nc2s1,-11%,i
COc1ccc2c(c1)C(=NNc1ccc(C(=O)O)cc1)c1cc(OC)ccc1-2,?,?
Cc1cccc(C(=O)Nc2nsc(N)n2)c1,-21%,-11%
CN(CCCC(=O)NC1CC(C)(C)NC(C)(C)C1)S(=O)(=O)c1ccc([N+](=O)[O-])cc1,-3%,-14%
N#CCCn1cc(C(=O)N2CCOCC2)c(-c2ccc3c(c2)OCCO3)n1,-27%,i
CCCCn1c(=O)nc2n(-c3ccc(OC)cc3)c3ccccc3cc-2c1=O,-18%,-20%
COc1ccc(NC(=O)OCCn2c([N+](=O)[O-])cnc2C)cc1,0%,i
COc1ccc2cc(CN(CCc3ccccc3)Cc3nnnn3CC3CCCO3)c(=O)[nH]c2c1 (centres undefined),-18%,-3%
Cc1cc(C)nc(NS(=O)(=O)c2ccc(NC(=O)c3cccc(N4C(=O)CCC4=O)c3)cc2)n1,-20%,-8%
CC(C)(C)NCCOCCOc1ccc(Cl)cc1C(C)(C)C,-29%,i
Cc1nc2c(C)cccc2cc1C(=O)N/N=C/c1cccc([N+](=O)[O-])c1,-30%,?
CC(C)(C)c1csc(NC(=O)Cc2ccc(S(=O)(=O)N3CCOCC3)s2)n1,-9%,i
COc1ccc(/C=C(/NC(=O)c2ccc(Br)o2)C(=O)Nc2cccc(C(=O)O)c2)cc1,2%,i
N#CCC(=N)N1CCN(c2ccccc2)CC1,22%,nt
O=C1C=C(c2ccc(Cl)c(C(F)(F)F)c2)C[C@@H](c2ccc(F)cc2)C1,-25%,-22%
O=c1c(-c2ccc(F)cc2)coc2c3c(ccc12)OCCO3,-6%,-9%
CCCNc1nc(OC)nc(N2CC3CC(C2)c2cccc(=O)n2C3)n1 (centres undefined),-7%,i
CC1CCN(c2ccc(/C=N\Nc3nncn3N)cc2[N+](=O)[O-])CC1,?,?
CC(=O)Nc1nnc(SCC(=O)c2ccc3c(c2)Cc2ccccc2-3)s1,17%,1%
CC(=O)Nc1ccccc1-c1nc2ccccc2n(CC(=O)Nc2ccc(C)c(Cl)c2)c1=O,?,?
CCOC(=O)c1ccc(NC(=O)CN2CCN(Cc3ccccc3)CC2)cc1,-2%,-8%
COc1ccc(-c2cn3cc(C(F)(F)F)cc(Cl)c3n2)cc1,-14%,-22%
Cc1ccc(C(=O)N2CCc3cc4c(cc3C2C)OCCCO4)cc1 (centres undefined),7%[7.34 µM],-19%[7.34 µM]
CCOc1ccccc1N=C1SC(CC(=O)Nc2ccc(OC)cc2OC)C(=O)N1CCC1=CCCCC1 (centres undefined),-22%,?
O=C(Nc1ccc(N2CCCCC2)cc1)c1ccccn1,-4%,-17%
O=c1c2c3c(sc2ncn1/N=C/c1ccccc1)CCCC3,-14%,nt
NC(=O)COC(=O)c1ccc2c(c1)S(=O)(=O)c1ccccc1C2=O,1%,-3%
O=C(CCn1cncn1)NCC1Cc2cc(-c3ccsc3)cc(Cl)c2O1 (centres undefined),-13%,-3%
COc1ccc(N2CCN(C(=O)c3nc(SC)ncc3Cl)CC2)cc1,1%,-12%
Brc1ccc(Nc2c3c(nc4nncn24)CCC3)cc1,-24%,?
Cc1cc(C)c(NC(=O)c2ccc(S(=O)(=O)N(C)C)cc2)c(C)n1,25%,20%
CN(N=Nc1ccccc1C(=O)O)C1CCCCC1,-13%,?
CCOc1ccc(-c2cc(OC(=O)c3ccc(OC)cc3)c3c(C)oc(C)c3c(=O)c2)cc1,4%,5%
CN1CCN(c2ccc(CNC(=O)c3ccc(-c4ccnn4C)c4ccoc34)cc2)CC1,-7%,2%
O=C(Cn1c(=O)nc(-c2ccccc2F)c2cc(Cl)ccc21)N1CCN(c2ccccc2F)CC1,-13%,-20%
CC(C)c1nc(SCC(=O)Nc2ccc3c(c2)OCO3)n[nH]1,?,nt
Cc1ccc(C(=O)/C=C/c2ccc3c(c2)OCO3)o1,-10%,-10%
CCN(C(=O)COC(=O)c1ccc2c(c1)OCO2)c1ccc(F)cc1,-20%,-1%
O=C(c1ccccc1)N1CCN(c2ccc([N+](=O)[O-])c(NCc3cccnc3)c2)CC1,-20%,-10%
CCOC(=O)c1c(C)n(OCc2ccccc2)c2ccc3c(no[n+]3[O-])c12,-4%,i
Cc1ccc(C(=O)C(C)OC(=O)CN2C(=O)NC3(CCCC3)C2=O)cc1 (centres undefined),-12%,-13%
CCCCN(CCCC)C1=C(C(=O)c2ccccc2)N(CC)S(=O)(=O)c2ccccc21,-14%,-10%
